Assay outcomes as filed in PubChem BioAssay.
Cruzain inh Det: qHTS Assay for Promiscuous and Specific Inhibitors of Cruzain (with detergent); purified cruzain, Z-FR-AMC fluorescence, 0.01% Triton; Cruzipain (Trypanosoma cruzi), P25779; hit rate 0.43% among 200,000; Potency, µM, without a hit: max response, negative = inhibition, actives largely listed as inhibitors;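 also: plate controls were neutral wells for no effect and buffer without enzyme for full effect; nearly all actives have a fitted effect of over 40% in size; top concentration of the series not given in the record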
Target sequence (P25779 123-467 limits assumed): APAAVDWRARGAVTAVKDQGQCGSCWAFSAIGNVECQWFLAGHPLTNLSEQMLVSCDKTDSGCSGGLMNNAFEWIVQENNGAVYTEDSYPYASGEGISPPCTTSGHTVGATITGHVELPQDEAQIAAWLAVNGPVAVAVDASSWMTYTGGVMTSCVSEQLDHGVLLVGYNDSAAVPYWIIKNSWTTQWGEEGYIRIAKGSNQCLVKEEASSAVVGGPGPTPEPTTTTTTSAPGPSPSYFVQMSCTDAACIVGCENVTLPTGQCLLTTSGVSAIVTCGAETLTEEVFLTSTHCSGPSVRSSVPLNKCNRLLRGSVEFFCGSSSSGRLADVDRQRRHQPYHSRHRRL
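Enzyme 1.5 nM, Z-FR-AMC 2 uM, NaOAc 100 mM pH 5.5, DTT 5 mM, Triton X-100 0.01%; 15 min RT compound preincubation; kinetic ex360/em450, 60 s delta.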
StopGo reporter: High Throughput Screening for Foot and Mouth Disease Virus Antivirals | Potency, µM (titrated, usually from 57.9 µM), without a hit: at the highest dose signal change, negative = less light | human cells with a luciferase reporter of 2A StopGo recoding; control for the full effect not named in the record | hit rate 1.2% among 410,000; active = well fitted falling curve with a large enough effect; inconclusive = small, poorly fitted or top-dose-only effect; inactive = no such curve, though single readings can be large or run the other way; tested in HEK293T cells; also: % is scaled to controls: 0 for no effect and ±100 for the full control effect; nearly all actives have a fitted effect of over 45% in size; luciferase light after 4 h
SARS PLpro yeast: qHTS of Yeast-based Assay for SARS-CoV PLP | hit rate 0.19% among 330,000 | Potency, µM (top dose mostly 32.9 µM), inactives show at the top dose activity, positive = growth rescue | S. cerevisiae expressing SARS-CoV PLpro, growth rescue; control for the full effect not named in the record | AID 485353, 2010; active means well fitted rising curve with a large enough effect; inconclusive means small, poorly fitted or top-dose-only effect; inactive means no such curve, though single readings can be large or run the other way; also: 0% is about no effect; nearly all actives have a fitted effect of over 55% in size; growth read by luminescence after 48 h
RE007 growth inh: qHTS Assay for Inhibitors of the HIV-1 protein Vpr | S. pombe RE007 Vpr strain, BacTiter-Glo ATP luminescence, 24 h; control for the full effect not named in the record | hit rate 0.21% among 360,000 | AID 651644, 2012 | Potency, µM (series often up to 92.2 µM), without a hit: at the highest dose activity change, negative = less growth; active = well fitted falling curve with a large enough effect; inconclusive = small, poorly fitted or top-dose-only effect; inactive = no such curve, though single readings can be large or run the other way;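 also: % is scaled to controls: 0 for no effect and ±100 for the full control effect; nearly all actives have a fitted effect of over 50% in size; the assay follows cell death caused by Vpr and the record does not say whether a fall means rescue or toxicity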
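Fission yeast RE007 carrying one integrated HIV-1 vpr copy, seeded at OD 0.01 in PMG+AL medium with 23 nL pinned compound. Grown 24 h at 30 degrees; viability read by BacTiter-Glo luminescence after 5 min.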
MARV entry inh: qHTS for inhibitors of binding or entry into cells for Marburg Virus | Marburg virus pseudotyped entry inhibition, cell reporter; control for the full effect not named in the record; about a third of the inactives were read at about 46 µM | Potency, µM (doses to about 37.8 µM), for inactives: at the top dose activity change, negative = inhibition, usual class: inhibitors | hit rate 1.8% among 300,000 | AID 540276, 2011; active = well fitted inhibition curve with a large enough effect; inconclusive = small, poorly fitted or top-dose-only effect, or effect the other way; inactive = flat fitted curve, though single readings scatter; tested in HEK293 cells; about a fifth of its hits are not listed in these tables; also: % is scaled to controls: 0 for no effect and ±100 for the full control effect; luciferase read-out
Lassa entry inh: qHTS for Inhibitors of binding or entry into cells for Lassa Virus. Lassa virus pseudotype entry inhibition, cell reporter; control for the full effect not named in the record. Potency, µM (highest dose often 37.9 µM), without a hit: at the top dose activity change, negative = inhibition, actives largely listed as inhibitors. hit rate 1.2% among 300,000. AID 540256, 2011; active means well fitted inhibition curve with a large enough effect; inconclusive means small, poorly fitted or top-dose-only effect, or effect the other way; inactive means flat fitted curve, though single readings scatter; tested in HEK293 cells; also: % is scaled to controls: 0 for no effect and ±100 for the full control effect; nearly all actives have a fitted effect of over 50% in size; luciferase read-out
NS1 function inh: qHTS Assay for Inhibitors of Influenza NS1 Protein Function | S. cerevisiae slowed by influenza A NS1, growth recovery by OD600 | Potency, µM (titrated, usually from 46.1 µM), for the others: at the highest dose activity, positive = more growth | hit rate 0.4% among 270,000 | AID 2326, 2010; active means well fitted rising curve with a large enough effect; inconclusive means small, poorly fitted or top-dose-only effect; inactive means no such curve, though single readings can be large or run the other way; also: nearly all actives have a fitted effect of over 50% in size
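Growth recovery, yeast-based: influenza A NS1 expressed in S. cerevisiae causes slow growth, and suppressors are detected by OD600. The parent strain without NS1 is used as positive control.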
Cruzain inh noDet: qHTS Assay for Promiscuous and Specific Inhibitors of Cruzain (without detergent); purified cruzain, Z-FR-AMC fluorescence, no detergent; Potency, µM, for the others: max response, negative = inhibition, usual class: inhibitors; hit rate 2.3% among 200,000;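 also: plate controls were enzyme without inhibitor for no effect and buffer without enzyme for full effect; nearly all actives have a fitted effect of over 40% in size; top concentration of the series not given in the record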
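Detergent-free condition (0.00005% Triton X-100) in acetate buffer pH 5.5 with DTT. 1.5 nM enzyme and compound were pre-mixed 15 min, then 2 uM Z-FR-AMC substrate added; reaction progress from fluorescence change between first and third reads (60 s).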
* marks the source's active call; other numbers are inactive results; ? = inconclusive; / = not tested or not shown; & = joins results of further samples; [ ] = another dose, or the depositor's remark. Unless noted, calls follow the shape of the dose curve; as a rule, active = well fitted curve in the direction sought with a large enough effect; inconclusive = small, poorly fitted or top-dose-only effect, or another doubt; inactive = no such curve, though single readings can be large; an effect the other way counts as inactive or inconclusive. Potency is read from the fitted curve at half-maximal effect.

SMILES	Cruzain inh Det	StopGo reporter	SARS PLpro yeast	RE007 growth inh	MARV entry inh	Lassa entry inh	NS1 function inh	Cruzain inh noDet
CCOC(=O)c1c(NC(=O)CCC(=O)N2CCOCC2)sc2c1CC(C)(C)OC2	3.0%	-3.7%	6.0%	20.7%	0.3%	?	-3.7%	1.9%
CCc1ccc(CN(Cc2ccco2)c2cnc(S(C)(=O)=O)nc2C(=O)Nc2cccc(C)c2)cc1	-2.0%	-19.9%	/	/	-28.1%[46.1 µM]	-7.2%[46.1 µM]	/	?
COC(=O)C1=C(C(=O)c2ccccc2)C(c2ccc(OC)c(OC)c2)Nc2nnnn21 (stereo not drawn)	-0.9%	13.6%	0.6%	-3.6%	?	14.5%	7.7%	-6.0%
CCN1CCN(C(=O)c2ccc(CN(c3ccccc3)S(=O)(=O)c3ccccc3)cc2)CC1	3.6%	-11.5%	14.1%	-0.4%	?	18.0%	17.6%	6.3%
c1ccc2nc3[nH]cnc3nc2c1	6.0%	18.0%	-1.6%	-7.9%	5.5%	5.6%	-1.9%	-0.5%
COC(=O)Cn1cnc2c1c(=O)n(C)c(=O)n2C	1.7%	-19.3%	-18.5%	2.0%	3.8%	-0.1%	5.6%	-2.8%
O=C(OCCCN=C1NS(=O)(=O)c2ccccc21)c1ccccc1	/	5.2%	-8.9%	-15.4%	11.2%	15.5%	2.8%	/
O=C(Cc1ccccc1[N+](=O)[O-])NCc1ccc2c(c1)OCO2	-0.6%	45.4%[activator]	1.5%	-8.7%	15.4%	19.3%	9.5%	3.0%
CN(C)C(Cc1ccccc1)C(=O)c1ccccc1 (stereo not drawn)	-2.7%	20.1%	7.0%	-7.5%	8.2%	16.0%	-15.7%	-6.1%
COc1ccc(-n2nnc(-c3nsc(NC(=O)c4cccs4)n3)c2C)cc1OC	2.2%	7.4%	/	/	/	-2.6%[46.1 µM]	/	-7.5%
CS(=O)(=O)N(CC(=O)N1CCN(c2ccccc2F)CC1)C1CCCCC1	1.0%	-3.6%	1.5%	3.5%	-7.0%	-10.1%	1.3%	-2.0%
FC(F)(F)c1cccc(Oc2nc(-c3ccccc3)nnc2C(F)(F)F)c1	0.3%	-6.2%	-2.9%	-1.8%	-6.3%	0.3%	?	1.1%
CCCCCO	10.2%	-16.5%	-5.0%	-16.2%	/	/	/	-2.6%
Cc1cc(C)c2oc(C(=O)Nc3ccc(S(=O)(=O)Nc4nccc(C)n4)cc3)cc(=O)c2c1	-2.5%	7.6%&6.6%	5.3%	1.8%	?	14.8%[46.1 µM]	-4.6%	?
COc1cc(/C=C2\SC(N)=NC2=O)cc(OC)c1	/	-3.5%	4.5%	-10.0%	?	-17.8%	-40.0%	/
CC[n+]1c(/C=C(\C)OC)sc2ccccc21	/	1.4%	0.2%	-2.7%	9.0%[46.1 µM]	11.0%[46.1 µM]	2.8%	/
COc1ccc(C(C)=O)cc1CC(=O)NC1CCCCCC1	/	-4.5%	5.3%	-15.2%	-6.2%[46.1 µM]	13.4%	-8.1%	/
COc1ccccc1NC(=O)NCc1ccco1	/	36.1%[activator]	-0.1%	61.9%	7.7%[46.1 µM]	?	/	/
Cc1ccc(CNC(=O)COC(=O)C2CCN(S(=O)(=O)c3cccs3)CC2)cc1	/	-4.8%	2.9%	13.4%	15.8%[46.1 µM]	?	/	/
CC1=C(C(=O)Nc2ccc(C)cc2)C(c2ccco2)NC(=O)N1 (stereo not drawn)	-1.1%	-20.6%	7.9%	4.5%	14.6%	-10.7%	5.2%	3.2%
COc1cc(OC)cc(C(=O)NCC(=O)OCC(=O)Nc2ccc(C)c(S(=O)(=O)N3CCOCC3)c2)c1	/	-1.0%	-4.0%	-2.5%	22.5%	-1.0%	/	/
C/C(=N\Nc1ccc(S(N)(=O)=O)cc1[N+](=O)[O-])c1ccc2c(c1)OCO2	/	35.5µM*	-0.3%	0.6%	?	-1.4%	-6.0%	/
O=C(c1c[nH]c(C(=O)C(Cl)(Cl)Cl)c1)c1c(F)cccc1F	/	0.0%	-1.7%	-18.6%	8.5%[46.1 µM]	-16.0%[46.1 µM]	8.7%	/
CC(=O)Nc1cccc2ncccc12	-2.0%	-7.5%	11.4%	2.9%	14.0%&14.0%&14.0%	13.3%	7.6%	3.4%
C/C(CC(=O)Nc1ccccc1[N+](=O)[O-])=N\NC(=O)COc1ccccc1C	-9.4%	12.9%	9.1%	-13.8%	24.1%	3.8%	-6.1%	0.8%
Cc1ccccc1CNC(=O)CCCn1nc(C)c2sc3ccccc3c2c1=O	-3.6%	-18.0%	/	/	-1.2%[46.1 µM]	?	/	25.1µM*
Cc1ccccc1OCC(=O)N/N=C/c1cccc(Oc2ccc([N+](=O)[O-])cc2[N+](=O)[O-])c1	-3.2%	0.0%	-6.5%	-1.6%	?	?	18.6%	?
COc1ccc(CNC(=O)Cn2ncc3c(=O)oc4ccc(C)cc4c32)c(OC)c1	1.3%	-9.0%	/	/	6.3%[46.1 µM]	3.9%[46.1 µM]	/	-7.3%
Clc1cccc(Cl)c1Cn1nnc(N2CCCC2)n1	/	40.9%[activator]	-0.1%	-3.5%	24.1%[46.1 µM]	?	-2.9%	/
CC1(C)CC(=O)C=C(Nc2ccc3c(c2)CCC3)C1	/	-14.1%	16.2%	2.2%	/	/	14.6%	/
C/C(CC1(O)/C(=N/O)CCc2nonc21)=N\O (stereo not drawn)	5.2%	-15.5%	15.2%	-5.1%	-1.9%	0.7%	7.7%	-4.3%
CCc1ccc2c(c1)NC(c1ccc(C)cc1)=NC(c1cccs1)=N2	-6.3%	47.8%[activator]	/	/	?	22.6%[46.1 µM]	/	-10.0%
COCCNC(=O)Cc1c(C)c2c(cc(C)c3c(C(C)(C)C)coc32)oc1=O	/	?	0.3%	17.9%	?	?	7.3%	/
Cc1cccc(N2Cc3ccc(Br)cc3C2)c1	/	58.0%[activator]	/	-5.7%	4.0%	?	/	/
C/C=C(\C)C(=O)NCCN1C2=NC[C@@H](C)N2C[C@@H]1Cc1ccc(OC)cc1	/	-8.4%	0.7%	-13.0%	/	/	-5.0%	/
CCN(CC)S(=O)(=O)c1cc(NC(=O)C2=COCCO2)ccc1Cl	/	-14.6%	-0.1%	-4.2%	15.5%	-15.2%	/	/
NC(=O)c1c(NC(=O)CSc2nc(N)cc(=O)[nH]2)sc2c1CCCC2	/	-20.6%	0.5%	8.1%	/	/	7.6%	/
CC1CC2=C(NC(=S)NC2c2ccc(F)cc2)/C(=C/c2ccc(F)cc2)C1 (stereo not drawn)	-1.4%	3.7%	1.3%	3.6%	-17.5%	8.5%	18.1%	-22.7%
CCOC(=O)Nc1ccc(S(=O)(=O)N2CCOCC2)cc1	3.5%	-19.4%	7.0%	19.2%	10.4%	-0.8%	-10.0%	0.0%
Cc1cc(NC(=O)OC2CCCCC2)ccc1[N+](=O)[O-]	/	30.3%[activator]	-3.9%	0.5%	10µM*	?	4.8%	/
COc1ccc(C(=O)OCC(=O)NC2CC2)cc1S(=O)(=O)Nc1ccc(C)cc1	/	49.3%[activator]	2.8%	19.8%	4.5%	0.5%	/	/
O=C(O)c1ccccc1C1Nc2ccccc2C(=O)N1CCCN1CCOCC1 (stereo not drawn)	/	-10.5%	0.2%	20.7%	/	/	-2.1%	/
CCCCn1c(SCC(=O)/C(C#N)=C(\C)N)nc2ccccc2c1=O	-8.2%	-21.3%	17.2%	7.9%	16.6%	?	-6.0%	12.8%
CCOC(=O)CSc1nnc(-c2ccc3ncccc3c2)n1C	/	14.8%	2.1%	2.6%	/	/	-4.7%	/
COc1ccc(C(=O)Nc2c(Cl)cc(Cl)cc2C(=O)N2CCC(C)CC2)cc1	4.9%	24.5%	-6.0%	/	?	2.9%	-7.5%	8.0%
CCCOc1ncnc2c1[nH]c1ccc(OC)cc12	/	16.5%	-0.8%	-9.1%	/	/	-4.5%	/
COc1ccc(NC(=O)c2cccnc2SC)cc1OC	/	1.1%	-0.9%	9.5%	?	6.5%[46.1 µM]	/	/
Cc1ccc(C(C#N)c2ccc(C(=O)c3ccc(F)cc3)cc2)cc1 (stereo not drawn)	-1.9%	-21.9%	2.5%	-2.3%	?	10µM*	9.4%	0.5%
Cn1c(=O)[nH]c(NC2CCCCC2)c([N+](=O)[O-])c1=O	-6.0%	-9.0%	1.2%	-2.7%	1.6%	-1.3%	-13.4%	3.3%
Cc1ccc(S(=O)(=O)N(C)C)cc1NC(=O)c1cccnc1Oc1ccccc1	/	-20.9%	0.7%	6.4%	/	/	3.0%	/
Cc1ccc(OCc2n[nH]c(=S)n2-c2ccc(C)cc2)cc1	/	-13.1%	0.0%	79.9%	-8.1%	4.0%	2.4%	/
Cc1ccc(Cn2c(=O)c3ccccc3n3c(-c4cccc(O)c4)nnc23)cc1	-2.3%	?	/	/	23.0%[46.1 µM]	28.3%[46.1 µM]	/	7.9%
COc1ccc(OC)c(/C=C(\NC(=O)c2ccccc2)C(=O)N/N=C/c2ccc(C)s2)c1	-4.4%	/	-1.6%	-16.0%	-20.6%	?	-1.7%	-3.6%
O=S(=O)(NCC(c1ccco1)S(=O)(=O)c1cccs1)c1ccc(F)c(C(F)(F)F)c1 (stereo not drawn)	-8.8%	28.7%	/	/	/	-0.4%[46.1 µM]	/	12.5%
COc1cc(CC(=O)OCn2nnc3ccccc3c2=O)cc(OC)c1OC	/	-16.2%	1.0%	-1.9%	-2.6%[46.1 µM]	-0.1%	/	/
CCCC(=O)N1CCN(c2nc3ccc(Cl)cc3s2)CC1	/	4.8%	-5.6%	-16.9%	/	/	-20.3%	/
O=C(NC1CCCCC1)C1c2ccccc2C(=O)N1Cc1ccco1 (stereo not drawn)	3.4%	-14.5%	6.4%	-0.5%	-17.3%	-0.5%	0.3%	-5.8%
